Compound activity deposited in PubChem by National Center for Advancing Translational Sciences (NCATS).
VACV mCherry inh = vaccinia inhibition (mCherry reporter) | AID 720579 | Vaccinia virus mCherry reporter infection, fluorescence; about a quarter of the inactives have no number | 310,000 compounds, 0.63% hits | Potency, µM (doses to about 36.5 µM), for the others: top-dose activity change, negative = inhibition, usual class: inhibitors; active = well fitted inhibition curve with a large enough effect; inconclusive = small, poorly fitted or top-dose-only effect; inactive = no such curve, though single readings can be large or run the other way; tested in A549 cells; note: nearly all actives have a fitted effect of over 35% in size; inactives centre near -10
Vaccinia Venus = vaccinia inhibition (Venus reporter). 330,000 compounds, 0.46% hits. Potency, µM (titrated, usually from 36.5 µM), for inactives: at the top dose activity change, negative = inhibition, hits mostly inhibitors. Vaccinia virus Venus reporter expression, fluorescence; active means well fitted inhibition curve with a large enough effect; inconclusive means small, poorly fitted or top-dose-only effect; inactive means no such curve, though single readings can be large or run the other way; tested in A549 cells; note: nearly all actives have a fitted effect of over 30% in size; inactives centre near -10
Starred values were filed as active, the others as inactive; i = inactive; ? = inconclusive; nt = no result given; & = joins results of further samples; [ ] = another dose, or the depositor's remark. % is set by controls: 0 for no effect and ±100 for the full control effect; potency is the fitted concentration of half-maximal effect.

SMILES	VACV mCherry inh	Vaccinia Venus
CCNC(=O)COC(=O)c1ccc(NS(=O)(=O)c2ccc3c(c2)OCCO3)cc1	i	-2%
O=C(N/N=C1/CCS(=O)(=O)c2ccc(F)cc21)c1ccccn1	-10%	-4%
c1ccc2c(CN3CCN(C4CCCCC4)CC3)c[nH]c2c1	nt	-10%
Cc1noc(C)c1S(=O)(=O)Nc1c(C)n(C)n(-c2ccccc2)c1=O	-12%	-12%
CCOC(=O)c1cc(-c2ccccc2)n(-c2cccc(C(=O)Nc3cccc(F)c3)c2)c1C	-13%	-6%
C=CCn1c(=O)c2ccccc2n2c(SCc3cc(=O)n4ccsc4n3)nnc12	nt	18%
CC(c1ccccc1)N1CNc2c(c(=O)n(C)c(=O)n2C)C1 (stereo not given)	-13%[1.46 µM]	-12%
OC(COc1cccc2ccccc12)CN1CCN(c2ccccn2)CC1 (stereo not given)	-27%	-21%
CCOc1ccc(CCNC(=O)CSc2nc3ccccc3nc2Cc2ccc(C)cc2)cc1OCC	-15%	-9%
COc1cccc(Nc2nc(C(N)Cc3ccccc3)cs2)n1 (stereo not given)	-28%	-22%
COc1ccc(OC(C)C(=O)NCc2nc(-c3ccc(Cl)cc3)no2)cc1 (stereo not given)	i	-20%
Cc1ccc(NC(=O)COC(=O)c2ccc3c(c2)OCO3)cc1S(=O)(=O)N1CCCCC1	i	-7%
O=C(O)Cc1ccc(NC(=O)C(c2ccccc2)c2ccccc2)cc1	-11%	2%
O=C(c1cccc(C(F)(F)F)c1)C1CCCN(Cc2ncc[nH]2)C1 (stereo not given)	i	1%
CCc1nc2c(OCCOc3ccc(F)cc3)cccn2c1N(C)C(=O)c1ccc(C)cc1	-14%	-6%
Cc1c(CN(C)Cc2cn(C)nc2-c2ccccc2F)[nH]c2ccccc12	-28%	-19%
O=C(NC1(C(F)(F)F)NC(=O)N(c2ccccc2F)C1=O)c1ccncc1 (stereo not given)	i	-20%
O=C1c2ccccc2C(=O)N1CCc1nn[nH]n1	i	-15%
CCCn1c(N)c(N2CCCCC2)c(=O)n(CC(=O)Nc2ccccc2C(F)(F)F)c1=O	-2%	-19%
COc1ccc(NCC(=O)n2c(C)c(C)c3ccccc32)cc1	-15%	-14%
Cc1ccc(NS(=O)(=O)c2cc(C(=O)NCCCN(C)C)ccc2Cl)cc1Cl	i	-5%
Cc1nc(C(F)(F)F)ccc1C(=O)NN1CCOCC1	-15%	-7%
COc1cc(/C=C(/C#N)C(=O)NC(C)c2ccccc2)cc(OC)c1O (stereo not given)	-22%	0%
CCC(C)NC(=O)COC(=O)c1ccccc1OCC(=O)Nc1ccc(Br)cc1 (stereo not given)	-1%&-22%	-5%&-9%
COCOCCn1cc(CN2CCS(=O)(=O)N(Cc3ccc(-c4cccc(CO)c4)cc3)C(CC(C)C)C2=O)nn1 (stereo not given)	i	-13%
CC(C)C[C@@H](CN1CCC[C@@H]1CN1C(=S)NC[C@@H]1Cc1ccc(O)cc1)N1C[C@H](Cc2ccccc2)N(CCc2ccccc2)C1=S	-4%	-5%
Cc1c(CCC(=O)N2CCC[C@H]2C(=O)O)c(=O)oc2c(C)c3oc4c(c3cc12)CCCC4	-12%	-2%
CCOc1ccc(C(=O)CSc2nnc3ccccn23)cc1	i	-6%
O=[N+]([O-])c1ccccc1CN1CCN(S(=O)(=O)c2ccccc2)CC1	-14%	-12%
COC(=O)c1cnc(N2CCN(c3ccc(F)cc3)CC2)c2ccccc12	-13%[7.34 µM]	-9%[7.34 µM]
Cc1ccc(C(CC(=O)O)Nc2nc(N3CCCCC3)nc(N3CCCCC3)n2)cc1 (stereo not given)	nt	-8%
CC1CN(C(=O)c2ccc(CNS(=O)(=O)c3cccc(Cl)c3)cc2)CC(C)O1 (stereo not given)	i	-9%
Cc1ccc(-n2cnc(N)c2C(=O)c2cccc([N+](=O)[O-])c2)cc1	-20%	?
O=C1C(Cl)=C(Oc2ccccc2)C(=O)c2ccccc21	?	6%
O=C(COc1ccccc1-c1ccccc1)NN=C1CCCC1	i	-1%
O=c1cc(CN2CCCC2)c2c(ccc3ccccc32)o1	56%[activator]	2%
COc1ccc(NC(=O)N2Cc3ccccc3-n3nncc3C2)cc1	i	-7%
CCSc1ncc(Cl)c(C(=O)N(Cc2ccc(N(C)C)cc2)C2CCS(=O)(=O)C2)n1 (stereo not given)	-14%	-4%
O=C(c1cc(-c2cccc(O)c2)on1)N1CCOCC1	-8%	5%
COc1ccccc1NC(=O)c1oc2ccccc2c1NC(=O)C1CCCCC1	-19%	-20%
O=S(=O)(Nc1cccc(F)c1)c1ccc(S(=O)(=O)N2CCOCC2)cc1	i	-17%
COc1ccc(NC(=O)c2ccco2)cc1NC(=O)COc1cc(C)ccc1C(C)C	-11%	?
CCC(C)NC(=O)c1sc2nc3n(c(=O)c2c1C)CCC3 (stereo not given)	1%	-11%
Cc1c(S(=O)(=O)N2CCCCC2)c(=O)n(C)c(=O)n1C	-3%	-9%
COc1cc(C)c(NC(=S)NCCCN2CCOCC2)cc1OC	-6%	-1%
O=C(CCc1ccccc1)NC(=S)Nc1cccc(C(=O)O)c1	i	-8%
CC1Oc2ccccc2C=C1/C=N/Nc1ccc(C(=O)O)cc1 (stereo not given)	13µM*	-22%
NS(=O)(=O)c1ccc(Sc2ccc3c(c2)CCC3)nc1	i	-9%
CC1(C(=O)Nc2cccc(OC(F)(F)F)c2)Cc2c(-c3ccc(C(N)=O)cc3)ccnc2O1 (stereo not given)	?	-15%
CN(Cc1ccc(C(C)(C)C)cc1)C(=O)c1ccc2c(c1)OCO2	-6%	0%
CN(C)c1ccnc2sc3c(NCC(O)CO)ncnc3c12 (stereo not given)	-5%	-21%
Cc1ccc(CNC(=O)c2ccc(CSc3nc4ccncc4n3Cc3ccc(C)cc3)cc2)cc1	?	?
O=C(CC(NCc1cccnc1)C(=O)O)Nc1ccc(O)cc1 (stereo not given)	3%	-2%
O=C(O)c1cccnc1SC1CC(=O)N(c2cccc(C(F)(F)F)c2)C1=O (stereo not given)	i	-3%
COc1ccc(N2CCN(CCCNC(=O)Cn3c(-c4cccs4)cc4ccccc43)CC2)cc1	-12%	-15%
COc1ccc(-c2csc(NC(=O)c3ccc(OCC(=O)N4CCOCC4)c(OC)c3)n2)cc1OC	?	?
CC(=O)N1CCc2c(sc(NC(=O)C3CCCN3S(=O)(=O)c3cccs3)c2C#N)C1 (stereo not given)	-21%	-11%
CC(C)C[C@H](NC(=O)NC1CCCc2ccccc21)C(=O)O (stereo not given in full)	-12%	-7%
Cc1cc(O)ccc1NC(=O)CCN1C(=O)c2ccc([N+](=O)[O-])cc2C1=O	-18%	-13%
CC(C)n1nnnc1C1c2ccccc2C(=O)N1CCc1ccc(O)cc1 (stereo not given)	5%	5%
Continued.
SMILES	VACV mCherry inh	Vaccinia Venus
O=C(NN1C(=O)/C(=C/c2cccs2)SC1=S)c1ccncc1	0%	-7%
COc1ccc([N+](=O)[O-])cc1NC(=O)C(C)N1CCN(C(=O)c2ccco2)CC1 (stereo not given)	-10%	-10%
CC(C)c1ccc(CNc2cc(N3CCCC3)ccc2[N+](=O)[O-])cc1	-25%	-9%
O=C1/C(=C\c2ccncc2)SC(=S)N1C1CCCCC1	-8%	-5%
CCC(=O)Nc1cccc(Oc2nc(C)cc(C)c2C#N)c1	-7%	1%
CCOc1ccc(-n2c(SCC(=O)Nc3cc(C)on3)nc3c([nH]c4ccccc43)c2=O)cc1	-14%	-29%&-12%
O=C1C(c2ccccc2)=[N+]([O-])c2ccccc21	-24%	-21%
O=C(Cc1cccc(F)c1)N1CCOCC1	i	-13%
O=C(NC1CCc2ccccc21)c1cc(COc2ccc(F)cc2F)on1 (stereo not given)	-15%	13%
C=COCCNC(=O)C(=O)NC(C)C	-6%	-3%
COc1ccc(N2CC(C)Cn3c2nc2c3c(=O)[nH]c(=O)n2C)cc1 (stereo not given)	nt	-28%
O=C(COc1ccc(C(=S)N2CCOCC2)cc1)N1CCCC1	i	-10%
CC(C)C1Cc2c(sc3c2c(=O)n(Cc2ccccc2)c2nncn32)CO1 (stereo not given)	nt	-22%
CCCn1c(N)c(C(=S)NC(=O)C2CC2)c(=O)n(C)c1=O	i	-8%
O=C(Nc1ccc(N2CCN(Cc3ccccc3F)CC2)cc1)c1ccccc1[N+](=O)[O-]	-23%	-23%
COc1ccc(-c2nc(CNS(=O)(=O)c3ccc(C)cc3)cs2)cc1	-5%	-6%
COc1ccc(NC(C)=O)cc1NC(=O)c1cccc(S(=O)(=O)N2CCN(Cc3ccccc3)CC2)c1	-20%	-7%
Cn1cc(CNC2CCN(c3cccc(NC(=O)c4cccnc4)c3)CC2)cn1	-9%	-2%
CC(c1ccccc1)n1ccnc1CO (stereo not given)	-13%	-1%
O=C(Nc1sc2c(c1C(=O)NCc1cccnc1)CCCC2)c1cc(=O)c2ccccc2o1	-13%	-16%
COc1ccc(-c2nc3c(Cl)cc(C(F)(F)F)cn3c2Cc2cccc(Cl)c2)cc1OC	17%	19%
O=C(O)c1nc(NCCc2ccccc2)ncc1Cl	-7%	-6%
COc1ccc(C(=O)NCC2Cc3cccc(-c4cncnc4)c3O2)c(OC)c1OC (stereo not given)	-24%	-18%
CCCNC(=O)CN1CCN(c2ccc(NC(=O)c3ccc(OC)cc3)cc2C(=O)O)CC1	-5%	-5%
CSc1cccc(NC(=O)Nc2ccccc2C(N)=O)c1	-9%	-15%
CCC(c1nnnn1CCc1ccccc1)N(Cc1ccco1)Cc1cc2cc(C)cc(C)c2[nH]c1=O (stereo not given)	nt	-21%
COc1ccc(-c2nnc(SCC(=O)N3CCCC(C)C3)o2)c(OC)c1 (stereo not given)	i	-15%
COc1cccc(COc2ccc3ccc(=O)oc3c2)c1	-10%	-22%
COc1cc2c(cc1OC)C(c1ccc(-c3ccc(Cl)cc3Cl)o1)=NCC2	?	-29%
CC(c1ccccc1)N1C(=O)C2C3CCC(C3)C2C1=O (stereo not given)	-13%	-7%
C=C1CCC2[C@](C)(CO)[C@H](O)CC[C@@]2(C)[C@@H]1/C=C/C1=CCOC1=O (stereo not given in full)	-8%	-4%
CCOC(=O)C1CCN(S(=O)(=O)c2ccc3c(c2)CC(=O)N3C)CC1	-15%	-14%
Cc1cccc2sc(N(Cc3cccnc3)C(=O)CCc3ccccc3)nc12	0%	-12%
N#C/C(=C\c1ccc(Br)s1)C(=O)N1CCN(c2ccccc2)CC1	-3%	-17%
CCOc1ccccc1N(C)C(=O)c1ccc2c(=O)n3c(nc2c1)CCCCC3	-14%	-14%
CCOc1ccc2oc(=O)cc(CN3CCN(C(=O)c4cccc(Cl)c4)CC3)c2c1	-15%	-9%
CC(=O)Nc1ccc(S(=O)(=O)N2CCN(CCC#N)CC2)cc1	-2%	-2%
Cc1cccc(CCNC(=O)CCS(=O)(=O)c2cc3c(cc2C)NC(=O)CO3)c1	14%&2%	-9%&-4%
O=C(CSc1ccc(-c2ccc(F)cc2)nn1)NCCc1ccccc1	i	6%
Cc1ccc(-c2ccc(CN3C(CC(C)C)C(=O)N(Cc4cn(CCC5OCCCO5)nn4)CCS3(=O)=O)cc2)cc1 (stereo not given)	i	?
O=C(CSc1nnc(-c2ccccc2F)o1)NC1CCCCC1	-13%	-15%
C/C=C(/C)C(=O)O[C@H]1C(C)=C2[C@H]([C@@H]1OC(=O)CCCCCCC)[C@@](C)(OC(C)=O)C[C@H](OC(=O)CCC)[C@@]1(O)[C@H]2OC(=O)[C@@]1(C)O	-2%[20.9 µM]	-12%[20.9 µM]
COc1ccccc1/C=C/CN1CCC(n2nccc2NC(=O)C2CC2)CC1	-4%	-19%
O=C(O)Cn1nc(-c2ccccc2)oc1=O	nt	2%
CCc1nc2c(OCc3ccc(Cl)cc3)cccn2c1N(C)C(=O)c1ccc(C)cc1	-19%	-15%
COc1ccc(/C=C\C(=O)CC(O)(c2ccccc2)C(F)(F)F)cc1 (stereo not given)	-1%	-14%

Part of the list above, with each value named.
O=C(CSc1nnc(-c2ccccc2F)o1)NC1CCCCC1
  VACV mCherry inh: -13%; Vaccinia Venus: -15%

C/C=C(/C)C(=O)O[C@H]1C(C)=C2[C@H]([C@@H]1OC(=O)CCCCCCC)[C@@](C)(OC(C)=O)C[C@H](OC(=O)CCC)[C@@]1(O)[C@H]2OC(=O)[C@@]1(C)O
  VACV mCherry inh: -2%[20.9 µM]; Vaccinia Venus: -12%[20.9 µM]

COc1ccc(/C=C\C(=O)CC(O)(c2ccccc2)C(F)(F)F)cc1 (stereo not given)
  VACV mCherry inh: -1%; Vaccinia Venus: -14%

COc1ccccc1/C=C/CN1CCC(n2nccc2NC(=O)C2CC2)CC1
  VACV mCherry inh: -4%; Vaccinia Venus: -19%

Compounds shown so far that have a COOH group (11):
SMILES	VACV mCherry inh	Vaccinia Venus
O=C(O)Cc1ccc(NC(=O)C(c2ccccc2)c2ccccc2)cc1	-11%	2%
Cc1c(CCC(=O)N2CCC[C@H]2C(=O)O)c(=O)oc2c(C)c3oc4c(c3cc12)CCCC4	-12%	-2%
Cc1ccc(C(CC(=O)O)Nc2nc(N3CCCCC3)nc(N3CCCCC3)n2)cc1 (stereo not given)	nt	-8%
O=C(CCc1ccccc1)NC(=S)Nc1cccc(C(=O)O)c1	i	-8%
CC1Oc2ccccc2C=C1/C=N/Nc1ccc(C(=O)O)cc1 (stereo not given)	13µM*	-22%
O=C(CC(NCc1cccnc1)C(=O)O)Nc1ccc(O)cc1 (stereo not given)	3%	-2%
O=C(O)c1cccnc1SC1CC(=O)N(c2cccc(C(F)(F)F)c2)C1=O (stereo not given)	i	-3%
CC(C)C[C@H](NC(=O)NC1CCCc2ccccc21)C(=O)O (stereo not given in full)	-12%	-7%
O=C(O)c1nc(NCCc2ccccc2)ncc1Cl	-7%	-6%
CCCNC(=O)CN1CCN(c2ccc(NC(=O)c3ccc(OC)cc3)cc2C(=O)O)CC1	-5%	-5%
O=C(O)Cn1nc(-c2ccccc2)oc1=O	nt	2%
